High-throughput results (PubChem)
Six1-Eya2 blk: blocks human Six1 binding to Eya2. Q15475+O00167. AlphaScreen GST-Six1/His-Eya2 binding, biochemical; hits give low values; control for the full effect not named in the record. activity change, % (concentration not given with the values). 360,000 compounds, 0.56% hits; in the data active = activity change below about -65%; inconclusive = about -30% to -65%; inactive = above about -30%; note: % is set by controls: 0 for no effect and ±100 for the full control effect
Target sequence (O00167 whole entry, looked up): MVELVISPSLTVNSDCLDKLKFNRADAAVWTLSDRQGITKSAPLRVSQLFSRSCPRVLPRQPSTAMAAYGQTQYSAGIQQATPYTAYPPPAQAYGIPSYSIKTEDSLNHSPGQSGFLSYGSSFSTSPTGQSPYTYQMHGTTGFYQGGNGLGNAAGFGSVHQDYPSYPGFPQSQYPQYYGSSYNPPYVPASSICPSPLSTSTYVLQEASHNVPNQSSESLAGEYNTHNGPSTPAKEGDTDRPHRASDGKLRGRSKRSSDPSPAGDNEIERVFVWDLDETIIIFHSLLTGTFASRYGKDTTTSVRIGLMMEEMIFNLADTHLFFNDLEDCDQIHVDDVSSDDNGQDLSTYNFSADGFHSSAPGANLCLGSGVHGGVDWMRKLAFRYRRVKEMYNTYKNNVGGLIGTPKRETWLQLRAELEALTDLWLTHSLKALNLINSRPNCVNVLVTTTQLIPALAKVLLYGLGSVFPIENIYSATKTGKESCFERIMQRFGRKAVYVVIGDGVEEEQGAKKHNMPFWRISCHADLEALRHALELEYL
Target sequence (Q15475 whole entry, looked up): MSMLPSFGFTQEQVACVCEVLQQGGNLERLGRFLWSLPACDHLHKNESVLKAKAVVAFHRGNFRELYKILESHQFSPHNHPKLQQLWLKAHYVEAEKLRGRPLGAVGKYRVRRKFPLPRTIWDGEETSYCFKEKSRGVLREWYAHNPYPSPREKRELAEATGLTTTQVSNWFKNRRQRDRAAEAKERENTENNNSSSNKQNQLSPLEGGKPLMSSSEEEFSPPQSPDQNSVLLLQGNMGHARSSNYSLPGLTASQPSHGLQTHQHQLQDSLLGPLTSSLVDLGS
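Homogeneous AlphaScreen proximity assay pairing GST-Six1 with His-tagged Eya2 (added as 5X mix: 250 nM and 500 nM) in 50 mM Tris pH 8.0, 300 mM NaCl, 1 mM TCEP. Glutathione donor and nickel acceptor beads; 1 h, 37 °C, dark.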
TRPML1 agonist: human mucolipin-1 channel agonism | Q9GZU1 | TRPML1-expressing cells, Ca2+ dye fluorescence, FDSS; host cell line not named in the record; reference of the full effect not given here | activation, % (no concentration beside the values) | 410,000 compounds, 0.12% hits; in the data active = activation above about 50%; inconclusive = about 30% to 50%; inactive = below about 30%; note: 0% is about no effect; the text of the record puts the active cut at 80%
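Kinetic FDSS Ca2+ read in Tet-induced TRPML1-DL cells (ABD Ca8 dye plus quencher, 45-90 min RT loading): baseline, then compound, then 110 s agonist window; EC80 agonist 54-4 at 4uM final added afterwards for a 110 s antagonist window.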
PINK1 modulator: PINK1 expression modulation. PINK1 immunofluorescence, high-content cytometry, 24 h. 410,000 compounds, 0.2% hits. Potency, µM (titrated, usually from 76.6 µM), without a hit: at the highest dose activation (PINK1 increase), usual class: activators. AID 624263; active = well fitted activation curve with a large enough effect; inconclusive = small, poorly fitted or top-dose-only effect; inactive = flat fitted curve, though single readings scatter; cell line not stated here;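 note: potency is the fitted concentration of half-maximal effect; % of control where 0% means no effect; nearly all actives have a fitted effect of over 65% in size; a mitochondrial uncoupler was the plate control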
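Decision-based qHTS: stable cells, 24 h exposure to five compound concentrations, CCCP as control. Fixed cells stained for PINK1 plus nuclear, mitochondrial and cell markers, cytometer read.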
D2 ag: activates the human D2 dopamine receptor; activation, % (no concentration beside the values); DiscoveRx PathHunter D2 beta-arrestin, luminescence, 90 min; 100% = 57 uM dopamine signal; 360,000 compounds, 0.084% hits; P14416; AID 624465; in the data active = activation above about 40%; inconclusive = about 15% to 40%; inactive = below about 15%; note: compound concentration not given in the record; the text of the record calls up to 30% inactive
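DiscoveRx PathHunter D2 beta-arrestin cells (2,100/well) attached overnight, then compound-stimulated 90 min at 37 C in HBSS/10 mM HEPES/0.1% Tween-20 buffer; beta-galactosidase complementation read by luminescence after 1 h at ambient temperature. Dopamine 57 uM final (EC100) as control.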
TRPML1 inh: blocks the human TRPML1 channel | Q9GZU1 | TRPML1-inducible cells, Ca2+ dye fluorescence, FDSS; hits give low values; inhibition of EC80 agonist-evoked calcium signal | activity change, negative = inhibition, % (no concentration beside the values) | 390,000 compounds, 0.02% hits | AID 624415; in the data active means activity change below about -50%; inconclusive means about -30% to -50%; inactive means above about -30%;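 note: stimulus is agonist 54-4 at its EC80 concentration; % is set by controls: 0 for no effect and ±100 for the full control effect; compound concentration not given in the record; the text of the record puts the active cut at -80%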
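TRPML1-DL cells, Tet-induced overnight (~16 h, 37 °C) at 1,500 cells/well, were loaded with Ca8 no-wash dye plus quencher for 45-90 min at room temperature. Compounds were pinned during FDSS kinetic reading; agonist 54-4 at EC80 (4 uM final) then added.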
CtBP-E1A blk: blocks the CtBP interaction with E1A; AlphaScreen GST-E1A/His-CtBP binding, 1536-well; hits give low values; control for the full effect not named in the record; activity change, % (test concentration not listed); 340,000 compounds, 0.49% hits; in the data active means activity change below about -65%; inconclusive means about -30% to -65%; inactive means above about -30%; note: % is set by controls: 0 for no effect and ±100 for the full control effect
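Protein mix (5X: 125 nM each GST-E1A, His-CtBP) was incubated with pinned compound 2 h at 37 deg C in dark, in 50 mM Tris pH 8.0 buffer with 300 mM NaCl. Glutathione donor and nickel acceptor beads followed; AlphaScreen signal read after 1 h.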
An asterisk follows results filed as active; u = inconclusive; x = no result given; & = joins results of further samples; [ ] = dose if it differs, or a comment.

SMILES	Six1-Eya2 blk	TRPML1 agonist	PINK1 modulator	D2 ag	TRPML1 inh	CtBP-E1A blk
COc1ccccc1NC(=O)Cn1nnc2sc3c(c2c1=O)CC(C)(C)OC3	3	2.8	2.8%	-3.8	-2	4
N#C/C(=C\c1ccc(-c2cccc([N+](=O)[O-])c2)o1)C(=O)NCCN1CCOCC1	-25	-0.4	0.5%	-2.0	-16	8
O=c1oc(-c2cccc(Cl)c2)nc2c1cnn2-c1ccccc1	4	-0.3	11%[38.3 µM]	0.4	-8	7
CC(=O)OCc1ccc(C2=CC(=O)CC(C)(C)C2=O)cc1	-2	x	0.4%	-0.4	x	3
CCN(CC(=O)NCc1cccs1)C(=O)c1cccc(S(=O)(=O)Nc2cccc(C)c2)c1	7	0.0	0.1%	-4.8	6	x
Cc1ccc(NC(=O)CN2C(=O)CSc3ccc(S(=O)(=O)N4CCCC4)cc32)c(C)c1	x	2.3	0.3%	x	4	x
O=C(NCc1ccccc1)c1nc[nH]c1C(=O)NCc1ccccc1	-2	3.0	3.0%	-2.2	13	0
CCC1Sc2ccc(S(=O)(=O)Nc3ccc(OC)cc3)cc2NC1=O (configuration not stated)	0	6.3	4.6%	6.0	-1	x
S=c1[nH]nc(-c2cccc(Cl)c2)n1CCN1CCCCC1	-1	0.5	0.4%	-4.3	-6	2
Cc1c(NC(=O)CSc2ccc(Cl)cc2)cccc1-c1nc2ncccc2o1	-1	0.7	2.8%[38.3 µM]	-0.1	-7	1
COc1ccc(N(CC(=O)NC(C)c2ccccc2)S(=O)(=O)c2c(C)nn(C)c2C)cc1 (configuration not stated)	x	0.1	0.5%	x	-13	x
COc1ccccc1-c1cc(C(=O)N/N=C/c2sccc2C)c2ccccc2n1	-11	-0.2	9.1%	-7.1	2	-7
CCCCC(=O)OCC(=O)c1[nH]c(C)c(C(=O)OCC)c1C	3	0.9	0.2%[38.3 µM]	-0.7	-2	8
CCCCn1c(N)c(N(CC(C)C)C(=O)CC2CCCCC2)c(=O)[nH]c1=O	3	-0.1	-1.5%	-1.3	17	-24
COc1ccc(C)cc1NS(=O)(=O)c1cc(Br)cc2c1N(C(C)=O)C(C)C2 (configuration not stated)	x	-0.7	1.7%	x	-5	x
NNC(=O)COc1ccc2oc3c(c2c1)CCCC3	-2	0.8	0.4%	7.0	-8	-14
Cc1nc2c(o1)CCc1ccccc1C2N1CCN(C)CC1 (configuration not stated)	19&-1&-3	0.7&0.6&-0.4	1.0%&0.4%	-3.2&-1.9&-3.9	-3&2&-13	-11&15&0
Cc1ccc(Cl)c(OCC(=O)N(C)CC(=O)Nc2ccc(N3CCOCC3)cc2)c1	-1	-0.1	0.8%	-1.5	-5	4
CS(=O)(=O)N1CCC(C(=O)N2CCN(c3ccccc3)CC2)CC1	13	-0.5	-0.4%	u	-24	1
Cc1cc2cc(C#N)c(N3CCN(S(C)(=O)=O)CC3)nc2cc1C	11	1.9	-1.3%	-2.7	8	-14
Cc1cc(C)nc(SCC(=O)c2ccc(F)c(C)c2)n1	5	x	0.5%	-0.1	x	x
CCc1cc(/C(Cc2ccccn2)=N\Nc2ccccc2)c(O)cc1O	7	0.4	1.1%	-7.2	-6	-17
CCOC(=O)c1c(C)[nH]c(=S)c(C#N)c1-c1ccccc1	3	1.7	0.0%	-1.0	-3	2
COc1cccc(NC(=O)COC(=O)COc2ccccc2[N+](=O)[O-])c1	0	0.5	1.9%	-1.1	0	9
CCc1nc2ccc(C(=O)Nc3cccc(NS(C)(=O)=O)c3)cn2c1N(C)Cc1nccn1C	-11	-0.8	1.9%	1.5	x	-4
Cc1c(Nc2nc(C(F)(F)F)nc3ccccc23)c(=O)n(-c2ccccc2)n1C	2	0.2	0.4%	-3.7	0	7
COc1ccc(C)cc1-n1c(-c2ccncc2)n[nH]c1=S	5	0.1	1.2%	0.6	1	2
CSc1nc(N(C)C)c2ccccc2n1	1	-0.5	1.7%	-4.0	10	13
CC(=O)N1CCc2cc(S(=O)(=O)NCCCOC(C)C)ccc21	3	3.4	0.1%	1.2	-2	-2
CC(Sc1ccccn1)C(=O)Nc1ccc2c(c1)OCCO2 (configuration not stated)	-1	0.7	3.4%	-3.6	9	3
Cc1ccc(C(=O)N/C(=C\c2cccs2)C(=O)NCC2CCCO2)cc1C (configuration not stated)	1	-0.2	2.1%	-2.5	13	-4
Cc1ccc2c(c1)-c1onc(C(=O)N3CCN(c4cc(C)ccc4C)CC3)c1CO2	x	1.5	-0.2%	x	4	x
Fc1cccc(Cc2c(C3CCCCC3)nc3ccc(Br)cn23)c1	9	-0.1	23%	-6.9	x	5
COc1ccccc1N1CCN(S(=O)(=O)CCNC(=O)C(C)Oc2ccccc2)CC1 (configuration not stated)	-15	-0.6	2.1%	-1.7	-2	-3
COc1ccc(/C=C(/NC(=O)c2ccco2)C(=O)N2CCCC2=O)cc1	8	-0.2	2.0%	-6.8	-12	-18
COC(=O)c1nnc(-c2ccccc2)nc1OC	-7	4.5	4.5%	-4.2	11	1

Record cards, from the list above. Values in the order: Six1-Eya2 blk, TRPML1 agonist, PINK1 modulator, D2 ag, TRPML1 inh, CtBP-E1A blk
Results for CC(Sc1ccccn1)C(=O)Nc1ccc2c(c1)OCCO2 (configuration not stated) → -1, 0.7, 3.4%, -3.6, 9, 3
Results for CCc1nc2ccc(C(=O)Nc3cccc(NS(C)(=O)=O)c3)cn2c1N(C)Cc1nccn1C → -11, -0.8, 1.9%, 1.5, x, -4

Further structures follow.
SMILES	Six1-Eya2 blk	TRPML1 agonist	PINK1 modulator	D2 ag	TRPML1 inh	CtBP-E1A blk
O=C(Nc1cnc2ccccc2c1)c1cccc(-n2cnnn2)c1	-14	-0.4	-3.0%	-2.4	12	-18
O=C(O)/C=C/C(=O)NNC(=O)c1ccccc1Br	4	0.8	-0.2%[38.3 µM]	-1.2	25	7
CC1CCCCC1NC(=O)COc1ccccc1C#N (configuration not stated)	-13	-0.7	-0.7%	-6.7	13	3
O=C(COc1ccc2c(c1)OCO2)Nc1nccs1	-1	-0.5	2.9%	-0.6	-3	-9
COc1ccc(CNC(=O)C2C3C=CC4(CN(Cc5cccnc5)C(=O)C24)O3)cc1 (configuration not stated)	-1	-0.7	-0.7%	-4.5	-4	4
C=CCn1c(NCc2ccco2)nc2ccccc21	-2	0.1	0.6%	-4.5	-12	10
O=C(Cn1cc(COc2c(F)c(F)cc(F)c2F)nn1)c1ccc(O)cc1	4	-0.3	1.3%	-8.6	-1	5
COc1ccccc1CO/N=C/NC(=O)c1c(OC)ccnc1Oc1ccc(F)cc1	-2	2.4	x	-1.9	4	6
O=C(Cc1noc2ccccc12)Nc1ccccn1	-13	-0.4	1.5%	-2.5	13	-4
CC(C)(C)c1ccc(C(=O)NCC(=O)OCC(=O)Nc2nc(-c3ccc(F)cc3)cs2)cc1	-3	-0.2	2.0%	4.9	-6	-16
Cc1ccccc1OCC(=O)OCC(=O)NCc1ccccc1	1	-0.2	-0.5%	-2.8	-8	x
CC(=O)Nc1c([N+](=O)[O-])cc2[nH]c(=O)[nH]c2c1[N+](=O)[O-]	-13	1.6	0.5%	3.5	37	x
O=C1CC(c2ccco2)CC(O)=C1C=Nc1ccccc1-c1ccccc1 (configuration not stated)	-2	-0.7	7.2%	-6.2	-14	1
CCc1cccc(NC(=O)c2sc3nc4n(c(=O)c3c2C)CCC4)c1	-14	-0.9	0.9%	5.6	-9	u
O=C(c1ccccc1)N1CCN(c2ncnc3c(-c4ccccc4)nsc23)CC1	8	1.2	-1.7%	4.0	1	0
CCOc1cccc(C(=O)N(Cc2ccco2)C2CCS(=O)(=O)C2)c1 (configuration not stated)	-1	0.3	-1.2%	-0.5	21	0
CCCCc1ccc(S(=O)(=O)NCCCN2CCCC2=O)cc1	0	1.7	-0.4%	-1.6	1	-6
CC(C)(C)CC(C)(C)c1ccc(OCC(=O)Nc2ccc(S(=O)(=O)Nc3ncccn3)cc2)cc1	x	0.2	6.2%	x	18	x
Cn1c(Cc2ccccc2)[n+](C)c2ccccc21	-4	0.8	0.8%	-3.6	-5	-6
CCOc1ccc(N2C(=O)CC(SC(=NC)Nc3ccc(F)cc3)C2=O)cc1 (configuration not stated)	0	2.8	-1.2%	-3.8	7	0
N/C(=N\OC(=O)COc1ccc(Cl)cc1)c1cccnc1	8	-1.2	1.2%	-6.5	12	10
Cc1ccc(Oc2coc3cc(OCC(=O)NC4CCCCC4)ccc3c2=O)cc1	x	2.2	0.4%	x	-16	x
CC(C)(C)C1CCc2c(sc(NC(=O)c3ccco3)c2C(=O)Nc2ccccc2Cl)C1 (configuration not stated)	x	-0.2	2.6%	x	-9	x
O=C(N1CCOCC1)C1(S(=O)(=O)c2ccccc2)CC=CC1	0	-0.4	0.7%	-1.4	0	4

Laid out differently: results already given.
Cn1c(Cc2ccccc2)[n+](C)c2ccccc21
  Six1-Eya2 blk = -4
  TRPML1 agonist = 0.8
  PINK1 modulator = 0.8%
  D2 ag = -3.6
  TRPML1 inh = -5
  CtBP-E1A blk = -6

Cc1ccc(Oc2coc3cc(OCC(=O)NC4CCCCC4)ccc3c2=O)cc1
  Six1-Eya2 blk = x
  TRPML1 agonist = 2.2
  PINK1 modulator = 0.4%
  D2 ag = x
  TRPML1 inh = -16
  CtBP-E1A blk = x

CCOc1ccc(N2C(=O)CC(SC(=NC)Nc3ccc(F)cc3)C2=O)cc1 (configuration not stated)
  Six1-Eya2 blk = 0
  TRPML1 agonist = 2.8
  PINK1 modulator = -1.2%
  D2 ag = -3.8
  TRPML1 inh = 7
  CtBP-E1A blk = 0

CC(C)(C)CC(C)(C)c1ccc(OCC(=O)Nc2ccc(S(=O)(=O)Nc3ncccn3)cc2)cc1
  Six1-Eya2 blk = x
  TRPML1 agonist = 0.2
  PINK1 modulator = 6.2%
  D2 ag = x
  TRPML1 inh = 18
  CtBP-E1A blk = x

Next section
SMILES	Six1-Eya2 blk	TRPML1 agonist	PINK1 modulator	D2 ag	TRPML1 inh	CtBP-E1A blk
NC1=NC(=O)C(=Cc2ccccc2)S1	10	1.4	5.5%	-0.9	-8	-22
CCCCc1nc2ccccc2c(NC(=O)CN2CCCC2)c1CCC	1	0.2	-2.7%[38.3 µM]	1.6	6	-1
CN1CCN(C(=O)c2cc3cc(F)ccc3[nH]2)CC1	-4	-0.3	-1.1%	-5.4	1	-16
Cc1ccc(N2C(=O)CS(=O)(=O)C23C(=O)N(Cc2ccccc2C)c2ccccc23)cc1Cl (configuration not stated)	x	0.9	-4.5%	x	4	x
C[C@@H]1[C@H]2[C@@H]3CC[C@@H](C3)[C@H]2CN[C@H]1c1cn(Cc2ccccc2)c2ccccc12	2	-0.9	-1.2%	-4.7	8	-7
CCC(C(=O)N1CCN(c2cccc(C)c2C)CC1)n1nc(C)c2sc3ccccc3c2c1=O (configuration not stated)	x	1.1	2.4%	x	26	x
Cc1ccc2c(C)nc(SC(C(=O)c3ccccc3)c3ccccc3)nc2c1 (configuration not stated)	2	2.8	3.1%	0.9	28	9
CCN(CC)c1ccc(C(=O)Nc2cccc(F)c2)cc1	-4	1.6	5.2%	-2.2	63	7
Cc1ccc(S(=O)(=O)NCC(=O)N2CCN(c3ccccn3)CC2)cc1	1	0.0	5.9%[38.3 µM]	-1.4	-8	0
